Mtb H37Rv = Mycobacterium tuberculosis H37Rv growth inhibition, cell based, confirmatory dose response (AID 1949) | most inactive calls were filed without a number and no value below 0 was filed | one-dose inhibition, % at 10 µg/mL; IC50 in µg/mL for titrated hits | hit rate 1.6% among 100,000;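 active = confirmed in a dose series; inconclusive = about 50% or more but not retested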;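 also: bacteria grown 7 days with compound before Alamar blue readout; 0% = untreated bacteria and 100% = reference antibiotic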
* hit, by the source's call; i = inactive; u = inconclusive.

Start of the listing, in advance:
SMILES	Mtb H37Rv
CCN1CCc2c(sc(NC(=O)Nc3ccc(Cl)c(Cl)c3)c2C(N)=O)C1	31%
COc1ccc(CN2CCN(c3ncnc4c3cnn4-c3ccccc3)CC2)cc1F	i
CC(C)OCCCNC(=O)c1ccc(Br)cc1	i
CC(c1ccccc1)C1CC(=O)N(Cc2ccco2)C1=O (stereo not drawn)	1%
CCCCOc1cccc(C(=O)Oc2cc(=O)oc3ccccc23)c1	6%
CCn1c(SCC(=O)Nc2ccccc2F)nnc1-c1cccc(C)c1	i
CS(=O)(=O)N(CC(=O)Nc1ccccc1C(=O)N1CCCC1)c1cccc([N+](=O)[O-])c1	i
C=CCn1c(SCc2ccc3c(c2)OCO3)nc2sc3c(c2c1=O)CC(C)(C)OC3	i
CC1=C(C)CC(C(=O)Nc2ccccc2Br)C(C(=O)O)C1 (stereo not drawn)	i
CCc1ccccc1N(CC(=O)Nc1ccccc1Cl)S(=O)(=O)c1ccccc1	i
Cc1cc(C)c(C)c(S(=O)(=O)Nc2ccccn2)c1C	i
CC1CCN(S(=O)(=O)c2ccc(NC(=O)CSc3ccccc3)cc2)CC1	i
CCOC(=O)c1ccc(CNC(=O)CSc2nnc(-c3ccncc3)o2)cc1	i
O=C(NCCCO)c1cc2ccccc2oc1=O	i
Cc1ccc(S(=O)(=O)NC(CC(=O)Nc2ccc(Br)cc2)c2ccccc2)cc1 (stereo not drawn)	i
O=S1(=O)CC(O)C(Nc2ccccc2Cl)C1 (stereo not drawn)	i
CC(C)(C)c1ccc(OCC(=O)Nc2ncn[nH]2)c(Br)c1	i
Cc1cc(C)cc(C(=O)Nc2ccc3c(c2)C(=O)N(C)C3=O)c1	i
COc1ccc(C(c2ccc(OC)cc2)c2ccccc2C(=O)O)cc1	5%
Cc1ccc2cccc(OC(=O)N3CCCC3)c2n1	i
COc1ccc(-n2nc([N+](=O)[O-])c(N3CCC(C)CC3)[n+]2[O-])cc1	1%
Cc1ccc(-c2nnc(SCC(=O)Nc3nccs3)o2)cc1	u

This part in full (from the top)
SMILES	Mtb H37Rv
CCN1CCc2c(sc(NC(=O)Nc3ccc(Cl)c(Cl)c3)c2C(N)=O)C1	31%
COc1ccc(CN2CCN(c3ncnc4c3cnn4-c3ccccc3)CC2)cc1F	i
CC(C)OCCCNC(=O)c1ccc(Br)cc1	i
CC(c1ccccc1)C1CC(=O)N(Cc2ccco2)C1=O (stereo not drawn)	1%
CCCCOc1cccc(C(=O)Oc2cc(=O)oc3ccccc23)c1	6%
CCn1c(SCC(=O)Nc2ccccc2F)nnc1-c1cccc(C)c1	i
CS(=O)(=O)N(CC(=O)Nc1ccccc1C(=O)N1CCCC1)c1cccc([N+](=O)[O-])c1	i
C=CCn1c(SCc2ccc3c(c2)OCO3)nc2sc3c(c2c1=O)CC(C)(C)OC3	i
CC1=C(C)CC(C(=O)Nc2ccccc2Br)C(C(=O)O)C1 (stereo not drawn)	i
CCc1ccccc1N(CC(=O)Nc1ccccc1Cl)S(=O)(=O)c1ccccc1	i
Cc1cc(C)c(C)c(S(=O)(=O)Nc2ccccn2)c1C	i
CC1CCN(S(=O)(=O)c2ccc(NC(=O)CSc3ccccc3)cc2)CC1	i
CCOC(=O)c1ccc(CNC(=O)CSc2nnc(-c3ccncc3)o2)cc1	i
O=C(NCCCO)c1cc2ccccc2oc1=O	i
Cc1ccc(S(=O)(=O)NC(CC(=O)Nc2ccc(Br)cc2)c2ccccc2)cc1 (stereo not drawn)	i
O=S1(=O)CC(O)C(Nc2ccccc2Cl)C1 (stereo not drawn)	i
CC(C)(C)c1ccc(OCC(=O)Nc2ncn[nH]2)c(Br)c1	i
Cc1cc(C)cc(C(=O)Nc2ccc3c(c2)C(=O)N(C)C3=O)c1	i
COc1ccc(C(c2ccc(OC)cc2)c2ccccc2C(=O)O)cc1	5%
Cc1ccc2cccc(OC(=O)N3CCCC3)c2n1	i
COc1ccc(-n2nc([N+](=O)[O-])c(N3CCC(C)CC3)[n+]2[O-])cc1	1%
Cc1ccc(-c2nnc(SCC(=O)Nc3nccs3)o2)cc1	u
Cc1cc(C)c(S(=O)(=O)N(CC(=O)O)Cc2ccccc2)c(C)c1	i
COc1cc(C(=O)O)cc(Br)c1OCC#N	i
COc1ccc(NC(=O)CN(Cc2c(F)cccc2Cl)S(=O)(=O)c2ccc(C)cc2)cc1	i
COCCCNC(=S)NNC(=O)Cc1ccc(-c2ccccc2)cc1	i
CCC(C)N(C(C)CC)S(=O)(=O)c1ccc([N+](=O)[O-])cc1 (stereo not drawn)	i
Cc1ccc(S(=O)(=O)Nc2ccc(NC(=O)C3CCCCC3C(=O)O)cc2)cc1 (stereo not drawn)	i
CCOc1ccc(C(C)NC(=O)c2ccc([N+](=O)[O-])cc2)cc1 (stereo not drawn)	i
CCCn1c2ccccc2c2nnc(SCC(=O)NC(C)c3ccccc3)nc21 (stereo not drawn)	i
CCCCc1ccc(NC(=O)C(C)N(c2ccc(OC)cc2)S(C)(=O)=O)cc1 (stereo not drawn)	i
CCOC(=O)Nc1sc(C)c(C)c1C(N)=O	i
Cc1ccc(OCCNCCCN)c(C)c1	1%
Cc1cccc(NC(=S)Nc2ccc(F)cc2)c1	i
CN(Cc1ccccc1)S(=O)(=O)c1ccc(OCC(=O)Nc2cccc([N+](=O)[O-])c2)cc1	i
Cc1ccc(Cl)cc1NC(=S)NC(=O)c1ccccc1F	4%
NC(=O)c1ccccc1NC(=S)NC(=O)c1cc(I)ccc1Cl	i
CCOC(=O)c1ccc(NC(=O)Nc2cc(C(=O)OC)ccc2C)cc1	i
CC(C)CCNC(=S)Nc1ccc(Br)cc1	u
O=C(O)C(CC1COc2ccccc2O1)C(=O)O (stereo not drawn)	4%
Cn1c(SCc2ccc([N+](=O)[O-])cc2)nnc1-c1ccc(Br)cc1	i
Cc1cccc2cc(C=O)c(N3CCCCC3)nc12	2%
O=c1nc(/C=C/c2ccc(Cl)cc2)oc2ccccc12	13%
O=C(COc1ccc(Cl)cc1Br)Nc1ccc([N+](=O)[O-])cc1	i
CN(C)CCCNc1ccc(-c2nn(C)c(=O)c3ccccc23)cc1[N+](=O)[O-]	6%
CCn1c(COc2ccccc2Cl)nnc1SCC(=O)Nc1nc(-c2ccc(C)cc2)cs1	i
O=C(NC(=S)NCc1ccco1)c1ccc(-c2ccccc2)cc1	3%
O=C(Nc1cccnc1)c1ccc(Cl)c(S(=O)(=O)N2CCOCC2)c1	i
CCNS(=O)(=O)c1cc(OC)ccc1OC	i
O=C(c1ccc(S(=O)(=O)c2ccccc2)cc1)N1CCCCCC1	i

Continuation:
SMILES	Mtb H37Rv
CNC(=S)NNC(=O)c1cccc(N(C)C)c1	i
COc1ccc(Cl)cc1NC(=O)c1sc2ccccc2c1Cl	i
CCOC(=O)N1CCN(S(=O)(=O)c2cc(Cl)c(C)cc2OCC)CC1	i
CN(C)S(=O)(=O)c1ccc(NC(=S)NC(=O)CCCOc2ccc(Cl)cc2Cl)cc1	5.4µg/mL*
O=C(CSc1nnc(-c2cccs2)n1-c1ccccc1)c1ccc([N+](=O)[O-])cc1	i
CCOC(=O)c1cnc(Nc2nc3ccccc3s2)nc1C	i
CC(C)OCCCNC(=O)C1CN(S(=O)(=O)c2ccccc2)CCN1S(=O)(=O)c1ccccc1 (stereo not drawn)	i
COc1ccc(CCNC(=S)Nc2ccn(C34CC5CC(CC(C5)C3)C4)n2)cc1OC	i
CC1Cc2ccccc2N1C(=O)c1nc2ccccc2s1 (stereo not drawn)	4%
O=C(NC1CC2CCC1C2)c1ccc(-c2ccccc2)cc1 (stereo not drawn)	i
O=C1CN(c2cccc(C(F)(F)F)c2)C(=O)CN1c1cccc(C(F)(F)F)c1	i
CC1CCc2c(sc3nn[nH]c(=O)c23)C1 (stereo not drawn)	i
O=C(NC1CCCCC1)c1cnn2cccnc12	i
CCOC(=O)CCOc1nc2c(C(F)(F)F)cc(C)nc2o1	i
CCCC(=O)Nc1nnc(COC)s1	i
O=C(c1cc(Br)ccc1Cl)N1CCN(c2ccc(F)cc2)CC1	1%
Cc1cccc(-c2noc(CNS(=O)(=O)c3ccc(F)cc3)n2)c1	5%
O=C(O)C1CCCC1S(=O)(=O)c1ccc([N+](=O)[O-])cc1 (stereo not drawn)	7%
N#Cc1ccccc1Sc1ccccc1C(=O)NC(Cc1ccccc1)C(N)=O (stereo not drawn)	i
COc1ccccc1Nc1nc(-c2c(C)nc3ccccn23)cs1	i
Cc1ccc(OCCn2cc(C(=S)N3CCCC3)c3ccccc32)cc1C	7%
COC(=O)c1ccc(CSc2ncccn2)o1	2%
Cc1ccc(C)c(OCC(=O)c2ccccc2)c1	i
COC(=O)c1ccccc1NC(=O)Nc1cnccn1	i
O=C(CSc1nc(-c2ccccc2)cc(C(F)(F)F)n1)Nc1ccccc1	3%
CC(=O)c1ccc(NC(=S)NC(NC(=O)c2ccc(Cl)cc2Cl)C(Cl)(Cl)Cl)cc1 (stereo not drawn)	i
Cc1ccc([N+](=O)[O-])c(OCCN2CCc3ccccc3C2)c1	6%
CCn1c(CCCc2ccc(OC)c(C)c2)nnc1SCC(=O)Nc1ccc(F)c(Cl)c1	i
CC(C)Cn1c(SCC(=O)Nc2ccc(Br)cc2)nnc1-c1ccncc1	i
O=C(CSc1nnc2ccccn12)Nc1ccc(F)c(Cl)c1	i
O=C(NC1CCCC1)c1ccc(Cl)s1	i
COc1ccc(S(=O)(=O)N(CC(=O)Nc2cccc(C(C)=O)c2)c2ccc(F)cc2)cc1OC	i
Cc1nc2ccccc2n1/C(=N/S(=O)(=O)c1ccc(Cl)cc1)c1ccc(Cl)cc1	i
O=C(Nc1ccc2oc(-c3ccccc3Br)nc2c1)c1ccco1	1%
CC(=O)NC(=O)NC1CSCC1OC(C)=O (stereo not drawn)	4%
COCCCNC(=O)c1ccc(C)cc1C	i
COc1c(Cl)cc(Cl)cc1C(=O)Nc1ccccc1C(N)=O	5%
COc1ccc(S(=O)(=O)N(CC(=O)N2CCN(c3ccccc3)CC2)c2ccccc2OC)cc1	i
CCOc1ccc(NC(=O)C2CCCN(S(=O)(=O)c3ccc(Cl)cc3)C2)cc1 (stereo not drawn)	i
COc1ccccc1C1C=C(c2ccccc2)Nc2nc3ccccc3n21 (stereo not drawn)	3%
O=S(=O)(c1ccc(-c2nc3ccccc3s2)cc1)N1CCOCC1	0%
Cc1ccc(NS(=O)(=O)c2ccc(NC(=S)NC(=O)C3CCC3)cc2)cc1C	i
O=C(Nc1ccccc1C(=O)N1CCCCC1)c1cccs1	i
O=C(CNc1ccc(F)cc1)c1ccccc1	i
CC(C)C(=O)Nc1cccc(C(=O)NCc2ccc(S(N)(=O)=O)cc2)c1	i
COC(=O)Nc1nnc(-c2cccs2)s1	2%
COc1ccc(NC(=O)CN(c2ccccc2F)S(=O)(=O)c2ccccc2)cc1OC	i
COc1cc2[nH]c(=S)n(CC3CCCO3)c(=O)c2cc1OC (stereo not drawn)	i
CC(=O)c1cccc(NC(=S)N2CCC(Cc3ccccc3)CC2)c1	i
COc1ccc(-c2ccc(-c3noc(-c4ccc(F)cc4)n3)c(OC)n2)cc1	i

Continuation:
SMILES	Mtb H37Rv
CC(C(=O)O)N1C(=O)/C(=C/c2cccc3ccccc23)SC1=S (stereo not drawn)	i
CCOc1ccc(C(=O)Nc2ccccc2N2CCCCC2)cc1Cl	4%
CCCCOc1ccc(N2CC(C(=O)NCCc3ccccc3)CC2=O)cc1 (stereo not drawn)	i
NS(=O)(=O)c1ccc(CNC(=O)C(c2ccccc2)c2ccccc2)cc1	i
NC(=O)CSc1nnc(COc2cccc3cccnc23)n1-c1ccccc1	1%
CCOc1ccc(NS(=O)(=O)c2cccc3ccccc23)cc1	1%
Fc1ccccc1-c1n[nH]c(=S)n1Cc1ccco1	i
C=C(C)Cn1c(SCc2ccccc2)nc2ccccc2c1=O	12%
COc1ccc(NC(=O)C(C)Sc2ccc(C)cc2)cc1 (stereo not drawn)	i
O=C(NCc1ccccc1)Nc1ccc(Cl)cc1	i
CCn1c(/C=C/c2ccc(OC)c(OC)c2)nc2ccc(I)cc2c1=O	i
COc1ccc(/C=C/c2nc3ccccc3c(=O)n2-c2cc(C(F)(F)F)cc(C(F)(F)F)c2)cc1	i
CCn1c(SC(C)C)nc2ccc(Br)cc2c1=O	2%
CCc1cc(C(=O)OC)c(NC(=S)Nc2nn(Cc3ccc(Cl)c(Cl)c3)cc2Cl)s1	i
Cc1oc2cc(OC(=O)N(C)C)ccc2c(=O)c1Oc1ccccc1Br	1%
CC(c1ccccc1)n1cnc2cc([N+](=O)[O-])ccc21 (stereo not drawn)	i
S=C(c1ccc(N2CCOCC2)cc1)N1CCCCC1	i
CCC(C(=O)Nc1ccc(CC(=O)OC)cc1)c1ccccc1 (stereo not drawn)	0.69µg/mL*
O=C(COc1ccccc1[N+](=O)[O-])Nc1cc2nn(-c3ccccc3)nc2cc1Cl	4%
CCOC(=O)COc1ccc2cc(-c3nc4ccccc4s3)c(=O)oc2c1	1.4µg/mL*
Fc1c(F)c(F)c(Cn2ccc(NC(=S)NCc3ccco3)n2)c(F)c1F	i
CCN(CC)CCCOc1ccc(Cl)c(Cl)c1	i
Cc1cc(=O)[nH]c(N2CCN(Cc3ccccc3)CC2)n1	i
O=C(NC(=S)Nc1ccc(Nc2ccccc2)cc1)C1CC1	43%
COCCN1C(=O)/C(=C\c2ccccc2[N+](=O)[O-])C(C(=O)OC)=C1C	i
Cc1ccccc1C(=O)N1CCN(c2ccc([N+](=O)[O-])c(N3CCCC3)c2)CC1	i
O=C(Nc1ccc([N+](=O)[O-])cc1)c1ccc(NC(=O)c2ccc(Cl)cc2Cl)cc1	i
Cc1ccc(OCc2nnc(SCC(=O)NC3CC3)n2-c2ccccc2)cc1C	3%
CCOc1ccc(S(=O)(=O)N2CCN(c3ccc(Cl)cc3)CC2)c2ccccc12	2%
CCOc1ccc(Cc2nnc(SCC(N)=O)n2C)cc1	i
Cc1ccc(Cl)cc1N(CC(=O)N1CCCCCC1)S(C)(=O)=O	i
COc1ccc(NC(=O)c2sc(N)nc2-c2ccccc2)cc1	i
COc1cc(Br)cc2cc(C(=O)NCCO)c(=O)oc12	4%
COc1ccc(C(=O)N2CCN(C3CCCC3)CC2)cc1	i
O=C(CN1C(=O)c2cccc3cccc1c23)N1CCN(c2cccc(Cl)c2)CC1	i

High-throughput results as filed in PubChem BioAssay.

The list is partial, so the mix of outcomes need not match the whole.
